Compound activity deposited in PubChem by several laboratories.
E coli growth: E. coli growth inhibition, primary screen, OD600; Escherichia coli growth, 23 h; hits give low values; OD600 absorbance (test concentration not listed); 330,000 tested, 0.21% active; AID 1053175, 2014;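 active = OD600 absorbance below the run mean of sample wells minus 3.6 SD, in any replicate, cut at about 0.56 in these data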;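 also: stock transfer was 300 nL into about 60 µL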
Ecoli rRNA inh: reduced GFP signal of wild-type E. coli, primary screen, bacterial rRNA inhibitor project, GFP/RFP fluorescence, OD600, single point | E. coli WT GFP vs humanized-ribosome RFP mutants, 24 h; hits give low values; DMSO median 0, no signal -100 | GFP signal change (wild-type ribosome), % (no concentration beside the values) | 350,000 tested, 1.6% active;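 active = significant combined selectivity score with lowered wild-type GFP, culture density cut under 30%, mutant RFP and density less affected; inactive = any of these conditions unmet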; also: one replicate is shown; some compounds called inactive have numbers as strong as hits
B2AR ag: beta2AR agonists driving receptor internalization, primary screen, cell-based, FAP fluorogen, flow cytometry | Am2.2-beta2AR cells; reference of the scale not given here | response, % (concentration not given with the values) | 340,000 tested, 0.43% active;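 active = response above a set limit, near 3 SD of response in nonfluorescent compounds, cut at about 42% in these data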;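 also: stock transfer was 100 nL into about 11 µL; a reference agonist was the positive control; negative values mostly stem from fluorescent compounds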
UCH37 inh: inhibitors of human UCH37 deubiquitinase, primary screen, biochemical, Ub-AMC cleavage, fluorescence. purified proteasome/UCH37. 330,000 tested, 0.33% active. AID 588478, 2011. inhibition, % (no concentration beside the values). Ubiquitin carboxyl-terminal hydrolase isozyme L5 (Homo sapiens), Q9Y5K5;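 active = mean of two replicates above 20%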;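 also: 0% = compound-free wells with enzyme and 100% = wells lacking proteasome; stock transfer was 100 nL into about 20 µL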
Target sequence (Q9Y5K5 whole entry, looked up): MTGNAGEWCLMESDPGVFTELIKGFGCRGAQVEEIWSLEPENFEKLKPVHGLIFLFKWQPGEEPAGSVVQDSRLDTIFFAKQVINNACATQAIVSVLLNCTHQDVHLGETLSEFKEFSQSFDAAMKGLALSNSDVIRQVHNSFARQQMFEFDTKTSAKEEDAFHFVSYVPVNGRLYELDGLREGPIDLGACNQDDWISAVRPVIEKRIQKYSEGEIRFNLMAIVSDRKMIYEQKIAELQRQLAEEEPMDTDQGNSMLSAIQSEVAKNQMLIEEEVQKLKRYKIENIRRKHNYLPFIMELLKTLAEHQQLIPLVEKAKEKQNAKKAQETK
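Test system – human UCH37 enzyme supplied as purified proteasome complex · Incubation – 30 min preincubation with enzyme, 25 min cleavage at room temperature · Detection – AMC fluorescence from Ub-AMC cleavage, excitation 355 nm, emission 460 nm · Benchmarks – no-proteasome wells (full inhibition) and compound-free wells (no inhibition)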
ALR H2O2 inh: inhibitors of human ALR sulfhydryl oxidase, primary screen, biochemical, H2O2 detection, HRP-luminol luminescence, single point; purified ALR, DTT oxidation; FAD-linked sulfhydryl oxidase ALR (Homo sapiens), P55789; 290,000 tested, 3.8% active; inhibition, % (no concentration beside the values); AID 485317, 2010;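 active = mean and each replicate at 75% or more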;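 also: stock transfer was 7.5 nL into about 7.5 µL; 0% = neutral wells and 100% = wells with inactivated enzyme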
Target sequence (P55789 whole entry, looked up): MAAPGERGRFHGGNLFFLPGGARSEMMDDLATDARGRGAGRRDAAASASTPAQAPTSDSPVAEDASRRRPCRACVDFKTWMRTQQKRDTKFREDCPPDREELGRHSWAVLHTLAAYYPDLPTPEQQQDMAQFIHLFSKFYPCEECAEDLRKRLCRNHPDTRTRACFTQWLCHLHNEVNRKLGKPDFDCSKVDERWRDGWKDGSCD
HNF4A DNA FP: change in binding of human HNF4A to DNA, primary screen, biochemical, fluorescence polarization, FITC-DNA; 1 h; 360,000 tested, 0.3% active; activity change, % at 10 µM; Hepatocyte nuclear factor 4-alpha (Homo sapiens), P41235; in the data active = activity change above about 30%, passing the limit was not always enough;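 also: controls were the assay level and a saturating level of protein; the project sought stronger binding though the title names inhibitors; some compounds called inactive have numbers as strong as hits; positive values seem to mean higher polarization but the record does not say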
Target sequence (P41235 whole entry, looked up): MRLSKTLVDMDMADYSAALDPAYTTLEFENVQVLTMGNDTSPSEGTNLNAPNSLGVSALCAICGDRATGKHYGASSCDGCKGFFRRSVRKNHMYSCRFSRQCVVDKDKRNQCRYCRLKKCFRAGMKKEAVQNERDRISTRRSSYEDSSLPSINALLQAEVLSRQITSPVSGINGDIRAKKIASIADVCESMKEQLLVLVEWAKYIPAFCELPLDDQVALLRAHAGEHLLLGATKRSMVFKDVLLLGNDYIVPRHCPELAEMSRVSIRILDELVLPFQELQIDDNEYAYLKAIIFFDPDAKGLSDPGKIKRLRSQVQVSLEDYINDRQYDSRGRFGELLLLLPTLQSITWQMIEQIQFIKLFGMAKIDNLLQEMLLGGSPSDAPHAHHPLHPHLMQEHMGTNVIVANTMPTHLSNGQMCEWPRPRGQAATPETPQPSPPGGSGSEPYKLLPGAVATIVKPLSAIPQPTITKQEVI
FGF22 binding: binders of human FGF22 protein, primary screen, FGF22 synaptogenesis inhibitor project, biophysical, thermal shift, single point; Fibroblast growth factor 22 (Homo sapiens), Q9HCT0; recombinant FGF22 thermal shift, SYPRO orange fluorescence; percent of sucrose octasulfate shift, DMSO zero; calls only at 9.99 µM; 340,000 tested, 1.5% active;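 active = melting point raised past a set limit in the mean and every replicate; three in four hits are not shown here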
Ecoli rRNA inh OD600: further read-out of Ecoli rRNA inh, marked with its call; OD600 change, %; measured here: OD600 growth;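 optical density of the mix in the first replicate; 0 = DMSO median and -100 = no signal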
Ecoli rRNA inh RFP: further read-out of Ecoli rRNA inh, marked with its call; RFP signal change, %; measured here: RFP humanized mutant strains;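 first replicate; 0 = DMSO median and -100 = no signal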
Starred values were filed as active, the others as inactive; i = inactive; · = not tested or not shown.

SMILES	E coli growth	Ecoli rRNA inh	Ecoli rRNA inh OD600	Ecoli rRNA inh RFP	B2AR ag	UCH37 inh	ALR H2O2 inh	HNF4A DNA FP	FGF22 binding
COc1ccc(-c2c(-c3cc(OC)cc(OC)c3)n(C)c3ccc(-c4cccc5[nH]ccc45)cc23)cc1	0.71	5	18	4.6	-6	-33	-6	2.8	i
Cc1ccc(C(CCNC(C)c2cccs2)c2ccco2)cc1 (stereo not drawn)	0.63	·	·	·	-1	3.3	-4	-0.5	i
Cc1cccc(Nc2c([N+](=O)[O-])cc(C(=O)N3CC(=O)Nc4ccccc43)cc2[N+](=O)[O-])c1	·	0	-5	-3.2	4	·	-5	1.5	·
CNC(=O)COc1ccc(Nc2nnc(C)c3ccccc23)cc1	0.64	3	0	1.5	-11	10	-14	-0.4	i
CCOC(=O)/C=c1\s/c(=C\c2c(OC)ccc3ccccc23)c(=O)n1CC(=O)NCC1CCCO1 (stereo not drawn)	·	4	-2	16	27	·	-4	14	i
Cc1cc(C)c2cc(C(c3nnnn3C3CCCC3)N3CCOCC3)c(=O)[nH]c2c1 (stereo not drawn)	0.7	·	·	·	-4	-0.4	7	2.5	·
CC(=O)Nc1cc(C(=O)N2CCN(C)CC2)ccc1Sc1ccc(C)cc1	0.73	·	·	·	3	5.6	-2	-18	·
COC(=O)[C@@]1(Sc2ccc(C)cc2)CC(=O)N(c2ccccc2)[C@@H]1c1ccccc1	·	1	-4	-2.4	·	·	·	-3.8	i
CCOCCC(=O)Nc1ccc2c(c1)c(=O)n(C)n2C/C=C/c1ccccc1	·	18	24	2.3	·	·	·	-1.6	i
Cc1nn(-c2ccccc2)c2sc(C(=O)OCc3nnc(-c4ccccc4)o3)cc12	0.74	·	·	·	-1	-1.8	-4	6.5	·
Cc1cccc(-c2nnc(SCC(=O)N3CCCC3)o2)c1	0.61	-4	-1	-1.8	1	1.5	3	5.4	i
Cc1cc(NC(=O)c2ccccc2F)n(C(C)(C)C)n1	0.64	17	11	1.4	4	3.9	-15	1.0	i

Quoted from the listing, 4 compounds:
SMILES	E coli growth	Ecoli rRNA inh	Ecoli rRNA inh OD600	Ecoli rRNA inh RFP	B2AR ag	UCH37 inh	ALR H2O2 inh	HNF4A DNA FP	FGF22 binding
COC(=O)[C@@]1(Sc2ccc(C)cc2)CC(=O)N(c2ccccc2)[C@@H]1c1ccccc1	·	1	-4	-2.4	·	·	·	-3.8	i
CCOCCC(=O)Nc1ccc2c(c1)c(=O)n(C)n2C/C=C/c1ccccc1	·	18	24	2.3	·	·	·	-1.6	i
Cc1nn(-c2ccccc2)c2sc(C(=O)OCc3nnc(-c4ccccc4)o3)cc12	0.74	·	·	·	-1	-1.8	-4	6.5	·
Cc1cccc(-c2nnc(SCC(=O)N3CCCC3)o2)c1	0.61	-4	-1	-1.8	1	1.5	3	5.4	i

More records follow.
SMILES	E coli growth	Ecoli rRNA inh	Ecoli rRNA inh OD600	Ecoli rRNA inh RFP	B2AR ag	UCH37 inh	ALR H2O2 inh	HNF4A DNA FP	FGF22 binding
O=C(NC1CCSc2ccccc21)c1cccc(S(=O)(=O)N2CCOCC2)c1 (stereo not drawn)	0.71	3	3	0.1	-3	2.3	-2	0.5	i
CC(C)(C)NC(=O)c1cc(NC(=O)c2ccco2)cc(NC(=O)c2ccco2)c1	0.69	·	·	·	-2	1.0	7	-0.5	·
Cn1c(=O)c2c(nc(N3CCN(c4ccccn4)CC3)n2Cc2ccc(Cl)cc2Cl)n(C)c1=O	0.72	·	·	·	-26	0.8	6	-1.2	·
CCOc1ccc(N(C(C)C(=O)N2CCCCCC2)S(C)(=O)=O)cc1 (stereo not drawn)	0.72	3	5	1.0	-3	1.8	-1	-3.2	i
O=C(CCCSc1nc2ccccc2[nH]1)NC(c1ccccc1)c1ccccc1	0.72	-40*	-25*	-1.7*	-5	4.0	-18	-0.3	i
Cc1ccc(-n2c(=O)c3sccc3n(CC(=O)NCc3ccco3)c2=O)cc1	0.69	·	·	·	2	-0.7	-5	0.8	·
Cc1ccc(NC(=O)C2CC2)cc1S(=O)(=O)N1CCOCC1	0.69	0	2	-5.6	10	1.8	-1	2.2	i
COc1cccc2cc(S(=O)(=O)c3ccccc3)c(=Nc3ccc4c(c3)OCCO4)oc12	0.67	·	·	·	-2	7.0	-9	-1.2	·
CC1(C)CC(=O)c2cc(O)ccc2O1	0.69	11	26	0.9	5	-6.9	11	2.2	i
Cc1cc(NS(=O)(=O)c2ccc(NC(=O)CCCOc3ccccc3C)cc2)nc(C)n1	0.64	-4	-12	-0.5	-16	2.8	99*	3.4	i
Cc1ccc(/C=C/C(=O)Nc2ccc(S(=O)(=O)Nc3onc(C)c3C)cc2)cc1	·	-3	-1	-1.3	5	·	70	-1.3	i
COc1ccc(OCC(O)CNC(=O)/C=C/c2cccc([N+](=O)[O-])c2)cc1 (stereo not drawn)	0.7	2	-4	-0.1	-1	2.0	-3	2.7	i
CCOC(=O)C1CCCN(Cc2cccc(Oc3ccccc3)c2)C1 (stereo not drawn)	0.62	-24	-21	-2.8	-1	5.8	-4	1.0	i
COc1ccc(N2Cc3cccc(C(=O)N4CCN(C(=O)c5ccco5)CC4)c3C2=O)cc1	·	1	11	1.5	-9	2.3	-17	-29	i
COc1cc(-c2cnc3c(NC(C)=O)cc(-c4cccc(C(=O)NCCO)c4)cn23)cc(OC)c1OC	·	9	8	-1.5	·	·	·	3.3	i
COc1ccc(C(=O)NNc2cc(C)nc(NNC(=O)c3ccc(OC)cc3)n2)cc1	0.68	12	17	-3.4	-5	6.0	13	2.1	i
O=[N+]([O-])c1ccc(Nc2cccc3c2[nH]c2c(-c4ccccc4)nccc23)c([N+](=O)[O-])c1	·	-8	26	10	4	·	·	-1.4	i
COc1ccc(N2CC(C(=O)Nc3ccc(S(=O)(=O)Nc4nc(C)cc(C)n4)cc3)CC2=O)cc1 (stereo not drawn)	0.7	1	-8	-0.8	8	-1.3	3	0.7	·
Cn1nnnc1SCC(=O)N1CCN(C(=O)c2ccco2)CC1	0.66	17	4	-0.5	6	0.3	-17	2.0	i
CCOc1ccc(Cn2c(O)cc(=O)[nH]c2=O)cc1	0.68	6	8	2.0	0	-0.4	0	0.6	·
O=C(N/N=C/c1cccc(OC(=O)c2cccc(Br)c2)c1)c1cccnc1	·	-6	-4	-0.4	10	·	11	-1.8	i
O=C(Nc1ccc2oc(-c3cccnc3)nc2c1)c1ccco1	0.77	·	·	·	-16	-15	-10	-6.5	·
CCOc1[nH]n(-c2ccc(Cl)cc2)c(=O)c1C=Nc1ccc(Cl)cc1	0.75	·	·	·	-3	5.5	-3	-1.5	·
CNc1nc(OCC(F)(F)F)nc(N2CCOCC2)n1	0.77	·	·	·	11	2.7	0	-0.8	·
CN(C)S(=O)(=O)c1cc(NC(=O)CN2CCNC(=O)C2)ccc1Cl	0.63	5	9	7.0	0	1.8	-3	9.1	i
COc1ccccc1Oc1cn[nH]c1-c1ccc(O)cc1O	0.65	-21*	-4.4*	1.5*	5	4.7	68	0.8	i
C=CCOc1ccc(C(=O)CC)cc1OC	0.66	15	-5	-2.6	-7	1.3	-18	5.1	i
Clc1ccc(-c2csc(=Nc3cccnc3)n2CCCn2ccnc2)cc1Cl	0.67	·	·	·	7	3.2	·	-0.4	i
COC(=O)CCC(=O)Nc1ccc2oc3c(c2c1)CCCC3	0.61	-9	-5	-6.4	-16	2.7	-3	0.6	i
CC(C)CC1(C)NC(=O)N(Cc2cc([N+](=O)[O-])cc3c2OCOC3)C1=O (stereo not drawn)	0.66	-2	-3	1.3	-19	3.9	-5	-1.9	i
CC(=O)NCC1(c2ccccc2)CCN(CC2COc3ccccc3O2)CC1 (stereo not drawn)	·	12	23	-1.4	·	·	·	-2.7	i
COc1ccc(NC(=O)CSc2ccccn2)c([N+](=O)[O-])c1	0.64	-26*	-20*	-3.1*	-2	0.1	-10	5.2	i
CC(C)Cn1c(Cc2ccccc2)n[nH]c1=S	0.65	-11	-12	-2.2	4	1.4	92*	1.6	i
CCOC(=O)C1CCCN(C(=O)c2ccc(CS(=O)(=O)Cc3ccccc3C)o2)C1 (stereo not drawn)	0.73	10	12	2.4	2	-2.1	0	0.8	i
CCn1c(C)nc2cc(C(=O)N/N=C/c3ccccc3C)ccc21	·	-2	-1	3.6	-3	·	-6	-0.7	i
COC(=O)c1cc(C(=O)Nc2ccc(Cl)cn2)cc([N+](=O)[O-])c1	0.72	14	18	4.0	-2	-1.9	-8	-1.6	i
FC(F)Oc1ccc(-c2c[n+]3c(n2-c2ccccc2)CCCCC3)cc1	0.64	5	6	5.9	1	1.6	-5	-0.7	·
COc1ccc(S(=O)(=O)N2CCOCC2)cc1NC(=O)COC(=O)c1ccc([N+](=O)[O-])s1	0.62	·	·	·	10	62*	-41	-3.3	·
COC(=O)c1ccccc1NC(=O)Nc1ncccc1C	0.64	14	12	2.0	1	-5.2	·	-1.4	i
Cc1ccc(S(=O)(=O)c2cc3ccccc3oc2=Nc2ccc3c(c2)OCCO3)cc1	0.72	·	·	·	-12	6.3	-22	4.5	·
O=C(c1ccccc1)N1CCN(C(=O)c2ccccc2Br)CC1	0.74	·	·	·	0	0.8	-23	-0.8	·
O=C(NCc1ccccn1)c1cc(Br)ccc1Cl	0.65	20	14	1.9	-1	3.9	29	-3.9	i
O=C(O)c1cc(N2C(=O)CCC2=O)ccc1NCc1cccnc1	0.71	6	4	5.7	6	-30	-11	-6.0	i
COc1cccc(C(=O)NCC2CCCN(C(=O)c3ccc(C=O)cc3)C2)c1OC (stereo not drawn)	0.66	13	6	1.6	0	0.2	7	-1.2	i
Cc1ccc(S(=O)(=O)NCC(=O)N(CC(=O)NC2CCCC2)CC2CCCO2)cc1 (stereo not drawn)	0.68	5	9	-2.6	-11	-1.4	·	-4.7	i
CCOC(=O)c1ccc(NC(=O)Cn2nnc3ccccc32)cc1	0.77	·	·	·	0	5.6	-1	4.8	·
O=C(COC(=O)c1cccnc1SCC(=O)NCc1ccccc1)NCc1ccccc1	0.76	·	·	·	0	2.4	·	1.4	·
Cc1cccc(CS(=O)(=O)Cc2ccc(C(=O)NCCN3CCCCC3C)o2)c1 (stereo not drawn)	0.64	·	·	·	-9	3.8	-6	2.3	·
CCCC(C(=O)Nc1ccncc1)c1ccccc1 (stereo not drawn)	0.71	1	-8	-2.5	5	4.5	-2	2.2	i
Cc1[nH]c2ccccc2c1C=NNC(=O)c1cc(-c2cccnc2)nc2ccccc12	0.63	4	9	-1.0	7	2.7	1	2.2	i
COc1ccc(NC(=O)NNC(=O)c2ccc3ccccc3c2O)c(OC)c1	0.71	-1	-7	-1.3	-2	-85	26	1.4	i
Cc1cc(C)n(CC(C)NCc2cn[nH]c2-c2ccc(C)c(C)c2)n1 (stereo not drawn)	0.69	-8	-9	-0.4	-6	-1.5	-4	6.6	·
C=CCSC1=C(C#N)C2(CCCCC2)C(C#N)C(=O)N1 (stereo not drawn)	0.67	·	·	·	-2	0.7	57	1.6	·

Some of the compounds tested; the hit share may differ from the screen's.
